Mtb hypoxia rep: PubChem AID 1159583; M. tuberculosis hypoxia-regulated fluorescent reporter, fluorescence; fluorescence inhibition, % (no concentration beside the values); 300,000 tested, 0.1% active;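 active = 35 to 45% if threefold the growth effect, above 45% if 1.5-fold the growth effect; inactive = the rest, general growth blockers included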;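 note: wells of about 50 µL received 100 nL stock; 0% = vehicle wells and 100% = reference inhibitor wells; whole bacteria with a GFP reporter of the hypoxia response; strong numbers were not always called active; many hits fall short of the cut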
Sa ugtP lethal: growth inhibition of ugtP-null S. aureus, primary screen, RN4220 ugtP deletion, OD600; growth inhibition, % (test concentration not listed); 330,000 tested, 0.54% active; 16 h; some inactives read as strong as hits;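 active = z-score under -3 and OD600 up to 0.15 on both plates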;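 note: plate controls were untreated wells for no effect and antibiotic for full effect; wells of about 80 µL received 100 nL stock; the first replicate is given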
RN4220 kill: growth inhibition of S. aureus RN4220, primary screen, OD600. 16 h. inhibition, % (concentration not given with the values). 330,000 tested, 0.33% active. AID 1259311, 2017;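 active = z-score of -3 or lower and OD600 up to 0.18 on both plates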;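 note: plate controls were untreated cells for no effect and reference antibiotic for full effect; stock transfer was 100 nL into about 80 µL; one replicate is shown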
Bead autofluor: flagged as autofluorescent in microsphere protease counterscreen. compound autofluorescence counterscreen, microsphere flow cytometry; active compounds read high. fluorescence intensity (test concentration not listed). 360,000 tested, 3.1% active. AID 624483;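 active = at least 3 SD above the mean of all compounds, about 16000 in these data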;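 note: 100 nL of 1 mM stock went into each well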
BJeLR lethal: MLPCN primary cell-based screen for lethality selective to Ras in HRASV12 cells | BJeLR (HRASV12) viability, CellTiter-Glo ATP luminescence, 48 h; reference of the scale not given here | inhibition, % (test concentration not listed) | 300,000 tested, 0.17% active | AID 1554, 2009;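 active = replicate mean above 50%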;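 note: 50 nL library stock added to about 25 µL; numbers are from one replicate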
PrP UTR inh: inhibition of PrP 5' UTR reporter expression; cell-based PrP 5' UTR mRNA reporter, plate reader; inhibition, % (no concentration beside the values); 340,000 tested, 0.35% active; AID 488862, 2010;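 active = every replicate at 50% or more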;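 note: 0 = median of the neutral control wells; tested in H4 reporter cells; numbers are from one replicate; inactives centre near -14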
Mtb hypoxia rep growth: recorded beside Mtb hypoxia rep, whose call it bears; growth inhibition, %; measured here: M. tuberculosis growth (absorbance);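 0% = vehicle and 100% = reference antibiotic; read after six days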
Numbers without * were called inactive. This is a random part of the collection; 4.1% or so of the library scored in one or more.

Screening Cc1c(/C=N/NC(=O)c2cc(C(C)(C)C)[nH]n2)c2ccccc2n1C returned Bead autofluor 3763, BJeLR lethal -9.9 and PrP UTR inh -7.2.
For CN1C(=S)N2CCCN2C1c1ccccc1 (configuration not stated) the results were Mtb hypoxia rep 16.8, Sa ugtP lethal 2.5, RN4220 kill 7.1, Bead autofluor 4058, BJeLR lethal 7.2, PrP UTR inh -5.7 and Mtb hypoxia rep growth -0.3.
`O=C(Nc1cccc(-c2nc3ccccc3s2)c1)c1cc(-n2cnnc2)ccc1Cl` gave Mtb hypoxia rep 19.6, Sa ugtP lethal -7.5, RN4220 kill 2.9, Bead autofluor 4151, BJeLR lethal -2.3, PrP UTR inh -28.0 and Mtb hypoxia rep growth 2.0.
O=C(O)/C=C/C(=O)Nc1nc(-c2ccc3ccccc3c2)cs1 was read as Mtb hypoxia rep 2.1, Sa ugtP lethal -2.2, RN4220 kill 8.3, Bead autofluor 6429, BJeLR lethal -0.1, PrP UTR inh -32.3 and Mtb hypoxia rep growth 15.9.
NNC(=O)/C(=N/Nc1ccccc1)S(=O)(=O)c1ccc(Cl)cc1 was read as Bead autofluor 2036, BJeLR lethal -0.8 and PrP UTR inh -8.1.
Cc1ccc(NC(=O)c2cnccn2)c(C)c1 was read as Mtb hypoxia rep 14.3, Sa ugtP lethal 0.8, RN4220 kill 0.6, Bead autofluor 3870, BJeLR lethal -8.2, PrP UTR inh -47.7 and Mtb hypoxia rep growth 3.0.
Screening Cc1cc(C)cc(C(=O)NCc2ccc3c(c2)OCO3)c1 returned Mtb hypoxia rep -6.8, Sa ugtP lethal 3.6, RN4220 kill 2.1, Bead autofluor 3719, BJeLR lethal -15.6, PrP UTR inh -22.5 and Mtb hypoxia rep growth 0.0.
For COc1ccc(N2Cc3ccccc3C2=NC(=O)c2ccc(C)cc2)cc1OC the results were Mtb hypoxia rep 2.3, Sa ugtP lethal 2.3, RN4220 kill -6.4, Bead autofluor 5099, BJeLR lethal 10.7, PrP UTR inh -18.7 and Mtb hypoxia rep growth -4.0.
`Cc1cc(-c2csc(N)n2)c(C)n1CCC(C)C` gave Mtb hypoxia rep 2.8, Sa ugtP lethal -14.2, RN4220 kill 4.4, Bead autofluor 2339, BJeLR lethal 16.3, PrP UTR inh 18.6 and Mtb hypoxia rep growth 10.7.
For COCCNC(=O)Cn1cc(/C=C(\C#N)C(=O)NC2CC2)c2ccccc21 the results were Mtb hypoxia rep 3.9, Sa ugtP lethal 17.6, RN4220 kill 0.2, Bead autofluor 3779, BJeLR lethal -12.9, PrP UTR inh 0.8 and Mtb hypoxia rep growth 8.0.
For COC(=O)c1cc(Br)c(=O)n(-c2ccccc2OC)c1 the results were Mtb hypoxia rep 3.6, Sa ugtP lethal 2.6, RN4220 kill 5.6, Bead autofluor 3265, BJeLR lethal -3.2, PrP UTR inh -14.8 and Mtb hypoxia rep growth 1.4.
For CCn1c(C)c(C(=O)O)c2cc(OC)c3ccccc3c21 the results were Mtb hypoxia rep 2.9, Sa ugtP lethal -4.3, RN4220 kill 6.2, Bead autofluor 4104, BJeLR lethal 1.0, PrP UTR inh -19.4 and Mtb hypoxia rep growth 2.3.
Screening CCN1CCN(C(=O)C2c3cc(OC)c(OC)cc3C(=O)N3CCc4ccccc4C23)CC1 (configuration not stated) returned Mtb hypoxia rep 3.4, Sa ugtP lethal -5.6, RN4220 kill -1.2, Bead autofluor 4079, BJeLR lethal -2.2, PrP UTR inh -10.3 and Mtb hypoxia rep growth 8.0.
For Cc1cccc(OCC(=O)NCC(=O)N/N=C/c2cc(Br)ccc2OCc2ccccc2)c1 the results were Bead autofluor 2498, BJeLR lethal -6.3 and PrP UTR inh -15.3.
`COC(C(=O)Nc1ccc(S(=O)(=O)Nc2ccc(F)cc2)cc1)c1ccccc1` (configuration not stated) gave Mtb hypoxia rep 18.5, Sa ugtP lethal 11.6, RN4220 kill 1.6, Bead autofluor 2025, BJeLR lethal 5.9, PrP UTR inh -9.8 and Mtb hypoxia rep growth 11.3.

No new results follow: two of the compounds above.
Screening Cc1c(/C=N/NC(=O)c2cc(C(C)(C)C)[nH]n2)c2ccccc2n1C returned Bead autofluor 3763, BJeLR lethal -9.9 and PrP UTR inh -7.2.
For CN1C(=S)N2CCCN2C1c1ccccc1 (configuration not stated) the results were Mtb hypoxia rep 16.8, Sa ugtP lethal 2.5, RN4220 kill 7.1, Bead autofluor 4058, BJeLR lethal 7.2, PrP UTR inh -5.7 and Mtb hypoxia rep growth -0.3.

Further compounds
For COC(=O)CSc1nc2ccccc2nc1SCC(=O)OC the results were Mtb hypoxia rep 5.8, Sa ugtP lethal 13.1, RN4220 kill 6.5, Bead autofluor 11295, BJeLR lethal 3.0, PrP UTR inh -9.6 and Mtb hypoxia rep growth 6.0.
`CNCC(=O)N(CC(C)C)c1c(N)n(CC(C)C)c(=O)[nH]c1=O` gave Mtb hypoxia rep 3.7, Sa ugtP lethal 8.4, RN4220 kill 4.9, Bead autofluor 3106, BJeLR lethal 3.4, PrP UTR inh -33.8 and Mtb hypoxia rep growth 3.7.
Cc1cccc(Nc2nc(C)cc(C)n2)c1 was read as Mtb hypoxia rep 1.7, Sa ugtP lethal 8.6, RN4220 kill 3.2, Bead autofluor 5079, BJeLR lethal 1.3, PrP UTR inh -26.9 and Mtb hypoxia rep growth -2.0.
Screening COc1ccc(NC2CCCN(C(=O)c3cccc(C(F)(F)F)c3)C2)cc1OC (configuration not stated) returned Mtb hypoxia rep 5.8, Sa ugtP lethal 2.6, RN4220 kill 1.4, Bead autofluor 6132, BJeLR lethal -3.2, PrP UTR inh -10.2 and Mtb hypoxia rep growth 5.2.
COC(=O)C1CC(=O)N(c2ccc(C)cc2)C1 (configuration not stated) was read as Mtb hypoxia rep 7.6, Sa ugtP lethal 5.0, RN4220 kill 1.0, Bead autofluor 2606, BJeLR lethal 0.3, PrP UTR inh -19.0 and Mtb hypoxia rep growth 9.2.
CC1CN(C(=O)c2ccc(NS(=O)(=O)c3ccc(C(C)(C)C)cc3)cc2)CC(C)O1 (configuration not stated) was read as Mtb hypoxia rep 1.1, Sa ugtP lethal -5.2, RN4220 kill 0.4, Bead autofluor 6207, BJeLR lethal -2.6, PrP UTR inh -35.4 and Mtb hypoxia rep growth 3.9.
`Cc1cc(C)n(-c2ccc(C(=O)Nc3nc4ccccc4s3)cc2)n1` gave Mtb hypoxia rep -2.1, Sa ugtP lethal -21.9, RN4220 kill -27.9, Bead autofluor 3310, BJeLR lethal -7.4, PrP UTR inh -130.1 and Mtb hypoxia rep growth 1.9.
`C/C(=N\Nc1cccc([N+](=O)[O-])c1)c1cc(F)ccc1O` gave Bead autofluor 4920, BJeLR lethal 10.8 and PrP UTR inh -86.7.
`CC(O)C1CNC(=O)C(=O)N1CCc1cc(C(F)(F)F)cc(C(F)(F)F)c1` (configuration not stated) gave Mtb hypoxia rep 22.0, Sa ugtP lethal -1.1, RN4220 kill 2.4 and Mtb hypoxia rep growth 7.2.
Screening Cc1ccc(C(=O)Nn2c(C)nc3ccccc3c2=O)cc1C returned Mtb hypoxia rep 3.6, Sa ugtP lethal -3.3, RN4220 kill 2.9, Bead autofluor 3823, BJeLR lethal -7.9, PrP UTR inh -2.0 and Mtb hypoxia rep growth -3.5.
CCCOc1ccc(-c2nc(SCc3ccccc3)[nH]c(=O)c2C#N)cc1OC was read as Mtb hypoxia rep 7.8, Sa ugtP lethal 73.2, RN4220 kill 22.8, Bead autofluor 3224, BJeLR lethal 2.5, PrP UTR inh -4.1 and Mtb hypoxia rep growth -0.3.
Cc1ccc2ncnc(NCCCN3CCOCC3)c2c1 was read as Mtb hypoxia rep 9.4, Sa ugtP lethal 14.6, RN4220 kill 5.8, Bead autofluor 7924, BJeLR lethal 5.7, PrP UTR inh 1.8 and Mtb hypoxia rep growth 7.0.
`Cc1cccc2cc(CN(Cc3ccco3)S(=O)(=O)c3ccc4c(c3)OCCO4)c(=O)[nH]c12` gave Mtb hypoxia rep 2.6, Sa ugtP lethal 0.7, RN4220 kill 2.2, Bead autofluor 8052, BJeLR lethal 1.5, PrP UTR inh -30.2 and Mtb hypoxia rep growth 2.8.
`COc1ccc(-n2nc(C#N)c(Cl)cc2=O)cc1` gave Sa ugtP lethal 19.9, RN4220 kill 17.5, Bead autofluor 3374 and PrP UTR inh -22.9.
`O=C(O)Cn1cc(C=c2sc3nc4ccccc4n3c2=O)c2ccccc21` gave Mtb hypoxia rep 4.4, Sa ugtP lethal -6.7, RN4220 kill 5.8 and Mtb hypoxia rep growth 1.5.

Fetched one by one from the list above, 2 records:
`CC(O)C1CNC(=O)C(=O)N1CCc1cc(C(F)(F)F)cc(C(F)(F)F)c1` (configuration not stated) gave Mtb hypoxia rep 22.0, Sa ugtP lethal -1.1, RN4220 kill 2.4 and Mtb hypoxia rep growth 7.2.
For COCCNC(=O)Cn1cc(/C=C(\C#N)C(=O)NC2CC2)c2ccccc21 the results were Mtb hypoxia rep 3.9, Sa ugtP lethal 17.6, RN4220 kill 0.2, Bead autofluor 3779, BJeLR lethal -12.9, PrP UTR inh 0.8 and Mtb hypoxia rep growth 8.0.

More records
Screening Nn1c(SCC(=O)N2CCOCC2)nnc1-c1ccccc1Cl returned Mtb hypoxia rep 3.7, Sa ugtP lethal 3.1, RN4220 kill 2.2, Bead autofluor 10245, BJeLR lethal 1.1, PrP UTR inh -26.5 and Mtb hypoxia rep growth 4.6.
Screening Cc1ccc(Sc2ncccc2O)cc1 returned Mtb hypoxia rep -5.4, Sa ugtP lethal 1.2, RN4220 kill 2.8, Bead autofluor 4150, BJeLR lethal -1.2, PrP UTR inh 2.0 and Mtb hypoxia rep growth 11.6.
For CCc1ccc(NC(=O)[C@H](C)NC(=O)C2CCN(C(=O)[C@@H](N)Cc3ccccc3)CC2)cc1 the results were Sa ugtP lethal 2.0, RN4220 kill -1.6, Bead autofluor 6100, BJeLR lethal 2.9 and PrP UTR inh -1.7.
`CCCN(CC1CC1)C(=S)Nc1ccc(C(C)=O)cc1` gave Mtb hypoxia rep -10.7, Sa ugtP lethal 0.0, RN4220 kill -0.3, Bead autofluor 3458, BJeLR lethal -3.8, PrP UTR inh 42.4 and Mtb hypoxia rep growth 9.9.
Cc1ccccc1Cn1cccc1/C=C1/C(=N)N2C=CSC2=NC1=O was read as Bead autofluor 3446, BJeLR lethal 0.0 and PrP UTR inh 7.4.
`O=C(N/N=C/c1ccccc1C(F)(F)F)c1ccc2nc[nH]c2c1` gave Bead autofluor 4715, BJeLR lethal -0.1 and PrP UTR inh -10.5.
Screening C/C(=C\c1ccccc1)C(=O)NCc1ccco1 returned Bead autofluor 2215, BJeLR lethal -4.4 and PrP UTR inh -21.9.
Screening COCCN1CC(=O)N(c2cccc(C)c2C)C(c2ccc(Cl)cc2)C1=O (configuration not stated) returned Mtb hypoxia rep 5.4, Sa ugtP lethal -3.4, RN4220 kill -0.1, Bead autofluor 4530, BJeLR lethal -1.9, PrP UTR inh -13.4 and Mtb hypoxia rep growth 7.6.
For O=c1[nH]c(=O)n(-c2ccc(Br)cc2)c(O)c1C=NC(CO)(CO)CO the results were Mtb hypoxia rep 12.5, Sa ugtP lethal 11.8, RN4220 kill 2.5, Bead autofluor 5362, BJeLR lethal -0.5 and Mtb hypoxia rep growth 9.5.
O=C(Nc1cccc2[nH]ncc12)c1ccc(F)cc1 was read as Mtb hypoxia rep 6.4, Sa ugtP lethal 13.9, RN4220 kill 3.8, Bead autofluor 22322*, BJeLR lethal 3.9, PrP UTR inh 1.0 and Mtb hypoxia rep growth 6.0.
CC(NCc1cccc(Cl)c1Cl)C(O)c1ccccc1 (configuration not stated) was read as Mtb hypoxia rep 10.9, Sa ugtP lethal 2.6, RN4220 kill 4.3, Bead autofluor 9722, BJeLR lethal 6.5, PrP UTR inh -17.5 and Mtb hypoxia rep growth 7.9.
Screening CCOc1cc(/C=N/Nc2nc(-c3cccc(S(=O)(=O)N4CCCC4)c3)cs2)ccc1O returned Bead autofluor 1844, BJeLR lethal -2.7 and PrP UTR inh -2.4.
For CCC(SC1=N/C(=C/c2ccccc2OC)C(=O)N1c1ccccc1)C(=O)Nc1cc(C)on1 (configuration not stated) the results were Mtb hypoxia rep 5.3, Sa ugtP lethal -2.5, RN4220 kill -23.2, Bead autofluor 3758, BJeLR lethal -5.4, PrP UTR inh -24.3 and Mtb hypoxia rep growth 9.4.

Assay outcomes: PubChem BioAssay, several laboratories
